Ecoli growth: blocks Escherichia coli growth. OD600, 23 h; stronger effect = lower value. AID 1053175. actives 0.21% (n = 330,000). OD600 absorbance (test concentration not listed);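 active = OD600 absorbance below the run mean of sample wells minus 3.6 SD, in any replicate, cut at about 0.56 in these data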;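 note: stock transfer was 300 nL into about 60 µL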
Numbers without * were called inactive; & = joins results of further samples. Only part of the results is shown (hit frequency here may not be typical).

Preview, 7 compounds:
SMILES	Ecoli growth
O=[N+]([O-])c1cc(Cl)cc(C=NNC(=S)Nc2cc(S(=O)(=O)N3CCOCC3)ccc2Cl)c1O	0.66
CCN1C(=O)C2C(c3ccc(-c4ccccc4)cc3)N[C@@](C)(C(=O)OC)C2C1=O (stereo partly specified)	0.7
COc1ccc(OC)c(C=NNC(=O)CCc2n[nH]c(=O)[nH]c2=O)c1	0.69
O=C(CCc1ccccc1)NCC(=O)NN=Cc1ccc2c(c1)OCO2	0.66
O=c1[nH]c2ccccc2nc1C=Cc1ccc(O)cc1	0.7
O=C(Nc1ccc(Cl)c(C(F)(F)F)c1)C1CC=CC2CCN(C3CCCCC3)C(=O)C21 (stereo unspecified)	0.73
COc1ccccc1-c1cnnc(NN=Cc2ccc(-c3cccc(Br)c3)o2)n1	0.75

Main list, previewed entries included:
SMILES	Ecoli growth
O=[N+]([O-])c1cc(Cl)cc(C=NNC(=S)Nc2cc(S(=O)(=O)N3CCOCC3)ccc2Cl)c1O	0.66
CCN1C(=O)C2C(c3ccc(-c4ccccc4)cc3)N[C@@](C)(C(=O)OC)C2C1=O (stereo partly specified)	0.7
COc1ccc(OC)c(C=NNC(=O)CCc2n[nH]c(=O)[nH]c2=O)c1	0.69
O=C(CCc1ccccc1)NCC(=O)NN=Cc1ccc2c(c1)OCO2	0.66
O=c1[nH]c2ccccc2nc1C=Cc1ccc(O)cc1	0.7
O=C(Nc1ccc(Cl)c(C(F)(F)F)c1)C1CC=CC2CCN(C3CCCCC3)C(=O)C21 (stereo unspecified)	0.73
COc1ccccc1-c1cnnc(NN=Cc2ccc(-c3cccc(Br)c3)o2)n1	0.75
O=C(O)c1cc(NN=C/C=C/c2ccccc2)ccc1Cl	0.7
CCCCC(CNC)NCC(NCCCCC1CCCCC1)C(C)C (stereo unspecified)	0.68
COc1ccc(Br)cc1C=Nn1nnnc1N	0.65
NC(=O)CCC(NC(=O)c1ccc(F)cc1)C(=O)OCC(=O)NCc1ccc(F)cc1 (stereo unspecified)	0.67
CC(C)Oc1ccc(CNC(=S)NN=Cc2cccnc2)cc1	0.73
Cc1nn(-c2ccccc2)c(C)c1C=Nn1c(-c2ccc(C(C)(C)C)cc2)n[nH]c1=S	0.76
C=CCNC(=S)NN=Cc1ccc(C)s1	0.66
COc1ccc(NS(=O)(=O)c2cccc(C(=O)NN=Cc3ccccn3)c2)cc1	0.71
O=C(NN=Cc1ccccn1)c1ccc(S(=O)(=O)N2CCCCCC2)cc1	0.72
CCOC(=O)C(C#N)=Cc1ccc(N2CCN(CC=Cc3ccccc3)CC2)cc1	0.71
CCC(=NNC(=O)CSCc1ccccc1Cl)c1ccc2c(c1)OCCO2	0.7
Cc1ncc(CO)c(C=NNC(=O)c2cccc(S(=O)(=O)N3CCCC3)c2)c1O	0.67
CC(=NNC(=O)CC1N=C(Cc2ccccc2)NNC1=O)c1ccc(Cl)cc1Cl (stereo unspecified)	0.74
Cc1cc([N+](=O)[O-])ccc1-c1ccc(C=NNC(=O)Cc2ccccc2)o1	0.72
Cc1nn(C(C)C(=O)NN=Cc2ccc(N(C)C)cc2)c(C)c1[N+](=O)[O-] (stereo unspecified)	0.67
CCOC(=O)NN=Cc1ccccc1OC/C=C/c1ccccc1	0.69
CCOC(=O)C1C2COc3ccccc3C2N2C(=O)N(c3ccc(Cl)cc3)C(=O)[C@]12C (stereo partly specified)	0.67&0.66
CC(O)C1NC(=O)c2cc([N+](=O)[O-])cc(I)c2NCCC(C(N)=O)NC(=O)CNC1=O (stereo unspecified)	0.66
O=[N+]([O-])c1ccccc1/C=C\C=NN1CCN(c2ccccc2)CC1	0.72
O=C1c2ccccc2NC(c2ccc(O)cc2)N1N=Cc1ccc(O)cc1 (stereo unspecified)	0.68
COC(=O)NN=CC1=CCC2CC1C2(C)C (stereo unspecified)	0.68
O=C(CCc1ccccc1)NN=Cc1cccc(O)c1	0.61
O=C(NN=Cc1ccco1)c1ccccc1OCc1ccc(Br)cc1	0.7
CC1(C)CC[C@]2(C(=O)O)CC[C@]3(C)C(=CCC4[C@@]5(C)CCC(O)C(C)(C)C5CC[C@]43C)C2C1 (stereo partly specified)	0.71&0.7
COc1ccc(C=NNC(=O)c2csc(-n3nc(C)cc3C(F)(F)F)n2)cc1	0.71
COc1ccc2c(c1)OCC1C2N2C(=O)c3ccc(C)cc3NC(=O)[C@@]2(C)C1c1ccccc1 (stereo partly specified)	0.65
COc1cc(C=Nn2c(-c3ccc4c(c3)NC(=O)CO4)csc2=Nc2cccc(C)c2)ccc1O	0.73
C#CCOCCOCCOCCNc1nc(N2CCOCC2)nc(N2CCN(C(=O)C(C(C)CC)n3cc(C(N)Cc4ccc(O)cc4)nn3)CC2)n1 (stereo unspecified)	0.68
COC(=O)C1=C(C)N(Cc2ccccc2)C(=NCC(C)C)NC1c1cccc(F)c1 (stereo unspecified)	0.68
O=C(O)CC1c2ccccc2S(=O)(=O)N1c1ccccc1 (stereo unspecified)	0.64
O=C(NN=Cc1ccco1)c1cc(-c2ccc(Br)s2)[nH]n1	0.64
CCCCCC(=O)Nc1cccc(C2=NOC3(C2)CC(C(N)=O)N(C(=O)c2cc([N+](=O)[O-])cc([N+](=O)[O-])c2)C3)c1 (stereo unspecified)	0.68
CCOC1OC(C(=O)NC2CC2)=CC(c2ccc3c(c2)OCO3)C1CCCO (stereo unspecified)	0.69&0.68
O=C(NN=Cc1cccs1)c1cc(C2CC2)nc2ccccc12	0.69
Cc1onc(-c2c(Cl)cccc2Cl)c1C(=O)ON=C(C#N)c1c(Cl)cccc1Cl	0.65
O=C(Cc1ccccc1)NN=Cc1ccc(Br)o1	0.69
O=C(NN=Cc1ccc(F)cc1)c1sccc1OCc1ccc(F)cc1	0.7
CCCCN1CC(Cc2ccccc2)C(CC(=O)NCc2ccc(OC)cc2)C1=O (stereo unspecified)	0.69
CC(=NNc1ccc(F)cc1)c1ccncc1	0.68
CC(=NN1CCN(c2ccccc2)CC1)c1cccc([N+](=O)[O-])c1	0.71
CSc1ccc(C=NNC(=O)C[n+]2ccccc2)cc1	0.72
COC(=O)C1C[C@@]2(O)C(O)C(O)C(O)CC2N1Cc1ccc(Cl)cc1 (stereo partly specified)	0.65
Oc1ccccc1C=Nn1c(-c2ccccc2)n[nH]c1=S	0.66
CC(C)C1NC(=O)c2cc([N+](=O)[O-])cc(I)c2OCCC(C(N)=O)NC(=O)C(CCC(=O)O)NC1=O (stereo unspecified)	0.68
Cc1cccc(OCC(=O)NN=Cc2ccc3c(c2)OCO3)c1	0.64
CC(=O)N1c2ccccc2C2CCCCC21 (stereo unspecified)	0.63&0.63
CCC(=NNC(=O)c1ccccc1Cl)c1ccc(Br)s1	0.72
Cc1ccc(S(=O)(=O)N(CC(=O)NN=Cc2cccc(Cl)c2)c2cccc3cccnc23)cc1	0.75
CCOP(=O)(OCC)C(=NOC(=O)c1ccccc1C)C(N)=O	0.67
O=C(O)c1cccc2c(C=NNc3ccccn3)c[nH]c12	0.68
CNc1ncnc2c1ncn2C1OC(CO)C(O)C1O (stereo unspecified)	0.68
CC(=NNS(=O)(=O)c1ccc(C(C)C)cc1)c1ccncc1	0.7
Cc1nn(-c2ccccc2)c(Cl)c1C=NNC(=O)c1cncc(Br)c1	0.65

Next section
SMILES	Ecoli growth
O=C(NN=Cc1cnc(N2CCCCC2)s1)c1ccc(C(F)(F)F)cc1	0.7
Cc1cc(=O)[nH]c(NN=Cc2ccccc2C(F)(F)F)n1	0.69
CCOC(=O)c1ccc(N=C2C(=S)N(c3ccc(C(=O)OCC)cc3)C(=N)N2N=Cc2ccccc2)cc1	0.72
O=C1N/C(=N\N=Cc2cccs2)SC1Cc1ccc(Cl)cc1Cl (stereo unspecified)	0.72
CCN(CC)S(=O)(=O)c1ccc(C(=O)NCC(=O)NN=Cc2ccccc2OC)cc1	0.7
CC(C)(C)NCC(O)COc1nsnc1N1CCOCC1 (stereo unspecified)	0.68&0.72
O=C(NN=CC=Cc1ccccc1)c1cc2c(ccc3ccccc32)o1	0.69
O=C(NCC1CCCO1)C(=O)NN=Cc1ccc(OCc2ccccc2Cl)cc1 (stereo unspecified)	0.72
CC(C)CC(=O)ON=C1C(=O)N(c2ccccc2)c2ccccc21	0.73
Cc1nnc(C)n1N=Cc1cccnc1	0.69
CC(C)CC(NC(=O)c1nc[nH]c1C(=O)NC(c1ccccc1)c1ccccc1)C(=O)OC(C)(C)C (stereo unspecified)	0.68
COc1ccc(OC)c(C=NNC(=O)C(=O)N2CCCCCC2)c1	0.69
Cc1ccnn1CC(=O)NN=Cc1cn[nH]c1-c1ccc(F)cc1	0.67
Cc1cccc(N2C(=O)CSC2=NNC(=O)c2ccc(Br)cc2)c1C	0.6
CN(C)S(=O)(=O)c1ccc(C(O)=C2C(=O)C(=O)N(Cc3cccnc3)C2c2ccco2)cc1 (stereo unspecified)	0.73

Continued; the last three above are carried over.
SMILES	Ecoli growth
Cc1ccnn1CC(=O)NN=Cc1cn[nH]c1-c1ccc(F)cc1	0.67
Cc1cccc(N2C(=O)CSC2=NNC(=O)c2ccc(Br)cc2)c1C	0.6
CN(C)S(=O)(=O)c1ccc(C(O)=C2C(=O)C(=O)N(Cc3cccnc3)C2c2ccco2)cc1 (stereo unspecified)	0.73
COc1cccc(C(=O)NCC(=O)NN=C(C)Cc2ccccc2)c1	0.64
Cc1ccc(C=Nn2c(-c3ccncc3)n[nH]c2=S)s1	0.7
COc1ccccc1NCC(=O)NN=C(C)c1cccs1	0.68
COc1ccc(C2CC=C(C(=O)O)C(c3ccccc3)N2S(=O)(=O)c2ccc(C)cc2)cc1OC (stereo unspecified)	0.67
CC(C)(C)c1ccc(C=NNC(=O)Cc2c[nH]c3ccccc23)cc1	0.66
CC(=NNC(=O)c1c(-c2ccccc2Cl)noc1C)c1cccc(NC(=O)C(C)C)c1	0.65
Nc1nonc1-n1nnc(C(=O)NN=Cc2ccccc2)c1CSc1ccccc1	0.72
Cc1cc(C=NNC(=O)C(=O)NCc2ccccn2)c(C)n1-c1cccc(Br)c1	0.68
C=C(C)C(=O)Nc1cccc(C2=NOC3(C2)CC(C(N)=O)N(C(=O)C2CCC(=O)N2)C3)c1 (stereo unspecified)	0.72
O=C(NN=Cc1ccc(O)c(O)c1)NN=Cc1ccc(O)c(O)c1	0.62
Cc1[nH]nc2c1C(=NO)CC(C)(C)C2	0.78
Cc1cccc(-n2cnc(C(=O)NN=Cc3ccccc3)c2)n1	0.75
CCCC=C1CCCOC(C(=O)NCc2ccccc2)(C(F)(F)F)C1 (stereo unspecified)	0.68
CC(NC(=O)c1nc[nH]c1C(=O)NCC(=O)OCc1ccccc1)C(=O)OCc1ccccc1 (stereo unspecified)	0.69
Cc1ccc(S(=O)(=O)Nc2ccccc2C=Nc2nc3ccccc3n2C(C)C)cc1	0.63
CN(C)N=Cc1ccc(OS(=O)(=O)c2ccccc2)cc1	0.63
CN(C)C=Nc1nc2nccc(-c3ccc(F)cc3)n2n1	0.65
COc1ccc(OC)c(C=NNC(=O)c2c(C)nc3ccc(C)cn23)c1	0.69
Cc1cc(C)c2nc(N=C(N)NC(=O)Nc3ccccc3)nc(C)c2c1	0.66
Cc1[nH]n(-c2ccccc2)c(=O)c1C=NO	0.65
CC(C)(C(=O)NC(CO)c1ccccc1)C(=O)NC(CO)c1ccccc1 (stereo unspecified)	0.68
CC1CCC(=O)N(CCC(N=[N+]=[N-])c2ccccc2)CC1 (stereo unspecified)	0.71
CC(=O)OCC(=O)[C@@]1(O)CCC2C3CCC4=CC(=O)CC[C@]4(C)C3C(=O)C[C@@]21C (stereo partly specified)	0.67
COc1ccc(N(CC(=O)NN=Cc2cccnc2)S(=O)(=O)c2ccc(C)cc2)cc1OC	0.68
O=C(CCC(=O)Nc1ccccc1)NN=Cc1ccc2c(c1)OCO2	0.71
CCC=C(NC(C)=O)c1ccccc1	0.65
Cc1cc(NN=Cc2ccco2)c2ccccc2n1	0.68
COc1ccc(C=Nn2c(=O)[nH]c3c([nH]c4ccc(Br)cc43)c2=O)cc1CN1CCOCC1	0.68
CN1CCN(C(=O)C(=Cc2ccc3c(c2)OCO3)NC(=O)c2cccs2)CC1	0.69
Cc1nc(N)nc(NN=Cc2c(F)cccc2Cl)n1	0.69
CC(=NOC(=O)c1ccc(C)cc1)c1sc(C)nc1C	0.68
CC(CN1C2=NCC(C(C)C)N2CC1Cc1ccc(O)cc1)NC(=O)CCC1CCCCC1 (stereo unspecified)	0.72
O=C(C1=CC(c2coc3ccccc3c2=O)CC(OCCCCO)O1)N1CCOCC1 (stereo unspecified)	0.67&0.69
Cc1cc(C(=O)NN=C2CC(=O)CC(C)(C)C2)n[nH]1	0.69
CC(=O)C(=NNc1ccccc1)Sc1nncn1C	0.68
C[N+]1(CCCCCCC(=O)C=NO)CCCCCC1	0.69
CCOc1ccc(CC(O)=C2C(=O)CC(C)(C)CC2=NCC(=O)O)cc1OCC	0.69
[N-]=[N+]=NC(CCN1CCC(O)CCC1=O)c1ccccc1 (stereo unspecified)	0.69
CN=c1scc(-c2ccccc2F)n1N=C(C)c1cccnc1	0.66
CC(=NNC(=O)c1ccn(C)n1)c1cccc(NC(=O)c2ccc(C)s2)c1	0.69
Cc1nc2ccccc2cc1C(=O)NN=Cc1cccs1	0.67
CCOc1cc(C=NNC(=O)c2cccnc2)ccc1OCC(N)=O	0.7
Cc1ccc(S(=O)(=O)Nc2ccc3c(c2)CC(=O)N(C(C)CO)CC(C)C(CN(C)Cc2ccc4c(c2)OCO4)O3)cc1 (stereo unspecified)	0.71
COc1ccc(C=NNC(=O)c2cccnc2)cc1CN1CCc2ccccc2C1	0.66
CSc1nncn1N=Cc1ccc2c(c1)OCO2	0.71
Cc1ccn2c(C(=O)NN=Cc3ccc(Cl)cc3)c(C)nc2c1	0.7
Fc1ccc2cc(CCOC3CCCCO3)ncc2c1 (stereo unspecified)	0.68
COC(=O)c1scc(C)c1NN=C(C)c1ccc(F)cc1F	0.72

Fetched by compound from above (3):
SMILES	Ecoli growth
CC(=NNC(=O)CC1N=C(Cc2ccccc2)NNC1=O)c1ccc(Cl)cc1Cl (stereo unspecified)	0.74
COC(=O)c1scc(C)c1NN=C(C)c1ccc(F)cc1F	0.72
CC1CCC(=O)N(CCC(N=[N+]=[N-])c2ccccc2)CC1 (stereo unspecified)	0.71
